Assay outcomes (PubChem)
MARV entry inh – qHTS for inhibitors of binding or entry into cells for Marburg Virus. Potency, µM (series often up to 37.8 µM), inactives show at the top dose activity change, negative = inhibition, usual class: inhibitors. Marburg virus pseudotyped entry inhibition, cell reporter; control for the full effect not named in the record; about a third of the inactives were read at about 46 µM. 1.8% of 300,000 active; active = well fitted inhibition curve with a large enough effect; inconclusive = small, poorly fitted or top-dose-only effect, or effect the other way; inactive = flat fitted curve, though single readings scatter; tested in HEK293 cells; about a fifth of its hits are not listed in these tables; also: % is scaled to controls: 0 for no effect and ±100 for the full control effect; luciferase read-out
Cruzain inh noDet – qHTS Assay for Promiscuous and Specific Inhibitors of Cruzain (without detergent) | Potency, µM, for inactives: max response, negative = inhibition, most hits filed as inhibitors | Cruzipain (Trypanosoma cruzi), P25779 | purified cruzain, Z-FR-AMC fluorescence, no detergent | 2.3% of 200,000 active;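 also: plate controls were enzyme without inhibitor for no effect and buffer without enzyme for full effect; nearly all actives have a fitted effect of over 40% in size; top concentration of the series not given in the record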
Target sequence (P25779 123-467 limits assumed): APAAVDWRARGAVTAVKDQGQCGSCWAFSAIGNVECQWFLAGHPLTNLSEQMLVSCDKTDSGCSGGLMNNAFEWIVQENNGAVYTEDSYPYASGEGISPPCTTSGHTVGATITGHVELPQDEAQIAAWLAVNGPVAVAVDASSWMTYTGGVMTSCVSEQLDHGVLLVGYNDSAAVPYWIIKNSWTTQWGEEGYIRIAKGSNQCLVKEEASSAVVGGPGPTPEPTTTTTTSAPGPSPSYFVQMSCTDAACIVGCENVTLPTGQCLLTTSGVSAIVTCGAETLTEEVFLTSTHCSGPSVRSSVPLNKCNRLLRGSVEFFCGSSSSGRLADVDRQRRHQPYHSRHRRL
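Detergent-free condition (0.00005% Triton X-100) in acetate buffer pH 5.5 with DTT. 1.5 nM enzyme and compound were pre-mixed 15 min, then 2 uM Z-FR-AMC substrate added; reaction progress from fluorescence change between first and third reads (60 s).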
RE007 growth inh – qHTS Assay for Inhibitors of the HIV-1 protein Vpr; S. pombe RE007 Vpr strain, BacTiter-Glo ATP luminescence, 24 h; control for the full effect not named in the record; Potency, µM (doses to about 92.2 µM), without a hit: at the highest dose activity change, negative = less growth; 0.21% of 360,000 active; active = well fitted falling curve with a large enough effect; inconclusive = small, poorly fitted or top-dose-only effect; inactive = no such curve, though single readings can be large or run the other way;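 also: % is scaled to controls: 0 for no effect and ±100 for the full control effect; nearly all actives have a fitted effect of over 50% in size; the assay follows cell death caused by Vpr and the record does not say whether a fall means rescue or toxicity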
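Fission yeast strain RE007, carrying one chromosomally integrated HIV-1 vpr copy, was seeded at OD 0.01 in PMG+AL medium with 23 nL pinned compound. After 24 h at 30 °C and 99% humidity, viability was read by BacTiter-Glo luminescence.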
StopGo reporter – High Throughput Screening for Foot and Mouth Disease Virus Antivirals; human cells with a luciferase reporter of 2A StopGo recoding; control for the full effect not named in the record; Potency, µM (series often up to 57.9 µM), inactives show at the highest dose signal change, negative = less light; 1.2% of 410,000 active; AID 1159524, 2015; active = well fitted falling curve with a large enough effect; inconclusive = small, poorly fitted or top-dose-only effect; inactive = no such curve, though single readings can be large or run the other way; tested in HEK293T cells; also: % is scaled to controls: 0 for no effect and ±100 for the full control effect; nearly all actives have a fitted effect of over 45% in size; luciferase light after 4 h
SARS PLpro yeast – qHTS of Yeast-based Assay for SARS-CoV PLP; S. cerevisiae expressing SARS-CoV PLpro, growth rescue; control for the full effect not named in the record; Potency, µM (highest dose often 32.9 µM), for inactives: top-dose activity, positive = growth rescue; 0.19% of 330,000 active; AID 485353, 2010; active means well fitted rising curve with a large enough effect; inconclusive means small, poorly fitted or top-dose-only effect; inactive means no such curve, though single readings can be large or run the other way; also: 0% is about no effect; nearly all actives have a fitted effect of over 55% in size; growth read by luminescence after 48 h
NS1 inh – qHTS Assay for Inhibitors of Influenza NS1 Protein Function | S. cerevisiae slowed by influenza A NS1, growth recovery by OD600 | Potency, µM (highest dose often 46.1 µM), for inactives: top-dose activity, positive = more growth | 0.4% of 270,000 active | AID 2326, 2010; active means well fitted rising curve with a large enough effect; inconclusive means small, poorly fitted or top-dose-only effect; inactive means no such curve, though single readings can be large or run the other way; also: nearly all actives have a fitted effect of over 50% in size
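A cell-based growth assay was used: compounds that relieve NS1-induced slow growth of budding yeast raise OD600. Assay medium was yeast nitrogen base with ammonium sulphate and -URA supplement, pH 6.0, with 2% galactose.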
LASV entry inh – qHTS for Inhibitors of binding or entry into cells for Lassa Virus | Potency, µM (doses to about 37.9 µM), inactives show at the highest dose activity change, negative = inhibition, actives largely listed as inhibitors | 1.2% of 300,000 active | Lassa virus pseudotype entry inhibition, cell reporter; control for the full effect not named in the record; active means well fitted inhibition curve with a large enough effect; inconclusive means small, poorly fitted or top-dose-only effect, or effect the other way; inactive means flat fitted curve, though single readings scatter; tested in HEK293 cells; also: % is scaled to controls: 0 for no effect and ±100 for the full control effect; nearly all actives have a fitted effect of over 50% in size; luciferase read-out
Cruzain Triton – qHTS Assay for Promiscuous and Specific Inhibitors of Cruzain (with detergent); Cruzipain (Trypanosoma cruzi), P25779; purified cruzain, Z-FR-AMC fluorescence, 0.01% Triton; 0.43% of 200,000 active; Potency, µM, inactives show max response, negative = inhibition, actives largely listed as inhibitors;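 also: plate controls were neutral wells for no effect and buffer without enzyme for full effect; nearly all actives have a fitted effect of over 40% in size; top concentration of the series not given in the record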
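Purified cruzain (1.5 nM final) was preincubated with compounds for 15 min at room temperature in 100 mM sodium acetate pH 5.5, 5 mM DTT, 0.01% Triton X-100. Reaction started with 2 uM Z-FR-AMC; AMC fluorescence change over 60 s gave activity.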
* = called active by the depositor; [ ] = remark or other dose. Unless noted, calls follow the shape of the dose curve; as a rule, active = well fitted curve in the direction sought with a large enough effect; inconclusive = small, poorly fitted or top-dose-only effect, or another doubt; inactive = no such curve, though single readings can be large; an effect the other way counts as inactive or inconclusive. Potency is read from the fitted curve at half-maximal effect. This is a random part of the collection, and some 4.8% of all compounds hit somewhere here.

For O=C(CSc1ccccn1)N1CCN(c2ccccc2)CC1 the results were MARV entry inh 16.3%, Cruzain inh noDet 2.6%, RE007 growth inh -23.7%, StopGo reporter 37.5%[activator], SARS PLpro yeast -8.7%, NS1 inh 2.1%, LASV entry inh 4.0% and Cruzain Triton -5.8%.
CCCCNC(=O)c1cc(-c2cccnc2)nc2ccc(S(=O)(=O)NCCCC)cc12 was read as Cruzain inh noDet -1.0%, StopGo reporter 92.4%[activator], LASV entry inh -14.4%[46.1 µM] and Cruzain Triton 0.1%.
Cc1cc(/C=N/NC(=O)COc2cccc3cccnc23)c(C)n1-c1ccc(O)cc1 was read as MARV entry inh -2.6%, Cruzain inh noDet inconclusive, RE007 growth inh -13.5%, StopGo reporter -2.6%, SARS PLpro yeast 2.1%, NS1 inh 3.2%, LASV entry inh -10.2% and Cruzain Triton -10.4%.
CCCS(=O)(=O)c1c(Nc2ccccc2C)sc(C(=O)c2ccccc2)c1N was read as MARV entry inh inconclusive, Cruzain inh noDet inconclusive, StopGo reporter inconclusive, LASV entry inh inconclusive and Cruzain Triton -9.1%.
`COc1ccc(CCNc2ncnc3c2cnn3-c2ccc(C)cc2)cc1` gave Cruzain inh noDet -5.3%, StopGo reporter -11.5%, LASV entry inh -17.6%[46.1 µM] and Cruzain Triton -1.3%.
`COc1ccc(-c2cc(-c3nnc(COC(=O)C4CC4C)o3)c3ccccc3n2)cc1OC` (stereo not given) gave MARV entry inh inconclusive, Cruzain inh noDet 20.6%, RE007 growth inh 4.5%, StopGo reporter 0.0%, SARS PLpro yeast -1.7%, NS1 inh 13.5%, LASV entry inh inconclusive and Cruzain Triton -4.4%.
Screening O=S(=O)(c1ccccc1)c1nc(-c2ccccc2F)oc1NCc1cccnc1 returned MARV entry inh -13.5%[46.1 µM], RE007 growth inh -19.8%, StopGo reporter 31.8%[activator], SARS PLpro yeast 17.6%, NS1 inh 4.1% and LASV entry inh inconclusive.
`CCCN(CCC)C(=O)Nc1ccc(F)cc1F` gave MARV entry inh 6.3%[46.1 µM], RE007 growth inh -19.5%, StopGo reporter -2.0%, SARS PLpro yeast -0.1%, NS1 inh -3.2% and LASV entry inh 0.2%[46.1 µM].
O=C(Cn1cnc2ccccc21)OCC(=O)N1CCc2ccccc2C1 was read as MARV entry inh 4.7%, Cruzain inh noDet -6.8%, RE007 growth inh -8.6%, StopGo reporter 8.7%, SARS PLpro yeast 3.7%, NS1 inh -32.4%, LASV entry inh 6.0% and Cruzain Triton 6.7%.
For CCOc1ccc(Nc2oc(/C=C/c3ccc(OC)c(OC)c3)nc2C#N)cc1 the results were MARV entry inh 1.8%[46.1 µM], Cruzain inh noDet 28.1%, StopGo reporter -11.6%, LASV entry inh -1.3%[46.1 µM] and Cruzain Triton -3.9%.
`CCOC(=O)C1=C(C)Nc2ccccc2N=C1NC(=O)c1ccc(Cl)c(S(=O)(=O)N2CCCC2)c1` gave MARV entry inh inconclusive, RE007 growth inh 5.4%, StopGo reporter -8.9%, SARS PLpro yeast 2.8% and LASV entry inh -7.3%.
Screening Cn1c(C(=O)NCc2ccc(F)cc2)cc2c(=O)n(C)c3ccccc3c21 returned MARV entry inh -0.3%[46.1 µM], Cruzain inh noDet 4.4%, StopGo reporter -7.1%, LASV entry inh 22.1%[46.1 µM] and Cruzain Triton 1.0%.
`O=[N+]([O-])c1ccc(N2CCN(S(=O)(=O)c3ccc4ccccc4c3)CC2)cc1NCC1CCCO1` (stereo not given) gave MARV entry inh -2.2%[46.1 µM], Cruzain inh noDet 15.8µM*, RE007 growth inh 0.5%, StopGo reporter -11.5%, SARS PLpro yeast 11.2%, NS1 inh 2.8%, LASV entry inh 3.3%[46.1 µM] and Cruzain Triton 1.4%.
Cc1cc(C)c2c(=O)cc(C(=O)Nc3c(C)n(C)n(-c4ccccc4)c3=O)oc2c1 was read as MARV entry inh -18.0%[46.1 µM], Cruzain inh noDet 7.7%, StopGo reporter -20.2%, LASV entry inh 21.1%[46.1 µM] and Cruzain Triton -3.3%.
Cc1cc(SCNC(=O)c2ccccc2)nc(C(C)C)n1 was read as MARV entry inh 10.0%[46.1 µM], RE007 growth inh 5.6%, StopGo reporter -3.7%, SARS PLpro yeast 19.2%, NS1 inh -2.4% and LASV entry inh 0.7%.
For CCCN(C(=O)c1ccc(N2CCCC2=O)cc1)c1c(N)n(Cc2ccccc2)c(=O)[nH]c1=O the results were MARV entry inh 21.2%, RE007 growth inh -5.5%, StopGo reporter -4.7% and LASV entry inh 4.3%.
Screening c1ccc(-c2nc3nc4ccccc4nc3n2Cc2ccco2)cc1 returned MARV entry inh -12.2%, Cruzain inh noDet -24.1%, RE007 growth inh -7.7%, StopGo reporter 23.1%, SARS PLpro yeast -10.8%, NS1 inh -81.3%, LASV entry inh inconclusive and Cruzain Triton inconclusive.
Screening N#Cc1cc2c(nc1SC1CCCCC1O)CCCC2 (stereo not given) returned MARV entry inh -6.4%, Cruzain inh noDet -4.7%, RE007 growth inh 0.1%, StopGo reporter -16.6%, SARS PLpro yeast -1.3%, NS1 inh -46.6%, LASV entry inh -34.2% and Cruzain Triton 0.8%.
For COc1cc(CN2CCc3nc(N4CCN(c5ccccn5)CC4)ncc3C2)cc(OC)c1OC the results were Cruzain inh noDet 6.8%, StopGo reporter inconclusive, LASV entry inh inconclusive and Cruzain Triton -1.9%.
Screening CCN(CC)S(=O)(=O)c1ccc(NC(=O)COC(=O)c2ccc(Br)o2)cc1 returned MARV entry inh -0.1%, Cruzain inh noDet -8.9%, RE007 growth inh 13.0%, StopGo reporter 14.6%, SARS PLpro yeast -5.9%, NS1 inh -22.5%, LASV entry inh 1.4% and Cruzain Triton -6.9%.
COc1cccc(C(=O)NCCS(=O)(=O)NCc2ccc(Cl)cc2)c1 was read as MARV entry inh -1.2%, RE007 growth inh -0.3%, StopGo reporter 9.4%, SARS PLpro yeast -0.6% and LASV entry inh 15.8%.
`CSCC[C@H](NC(=O)[C@H]1N2C(=O)c3ccccc3C2SC1(C)C)C(=O)NCc1ccncc1` (stereo not given in full) gave RE007 growth inh -3.2%, StopGo reporter -22.5%, SARS PLpro yeast -3.0% and NS1 inh 0.7%.
Screening CCN(CC)S(=O)(=O)c1ccc(C(=O)NCc2n[nH]c(=S)n2Cc2ccccc2)cc1 returned MARV entry inh -1.9%, Cruzain inh noDet 9.5%, RE007 growth inh 19.3%, StopGo reporter -18.5%, SARS PLpro yeast -4.5%, NS1 inh -9.7%, LASV entry inh 18.9%[14.3 µM] and Cruzain Triton 3.5%.
CCOc1ccc2nc(NC(=O)CSCC(=O)Nc3cc(C)on3)sc2c1 was read as MARV entry inh 18.7%, RE007 growth inh 7.2%, StopGo reporter 27.6%, SARS PLpro yeast -1.7% and LASV entry inh inconclusive.
Screening CCOC(=O)c1c(N)sc(C(O)(C(F)(F)F)C(F)(F)F)c1-c1ccc(OC)cc1OC returned MARV entry inh inconclusive, Cruzain inh noDet -7.3%, RE007 growth inh -22.5%, SARS PLpro yeast -8.4%, NS1 inh -69.8%, LASV entry inh -7.6% and Cruzain Triton -8.7%.
`O=C(CNC(=O)c1ccccc1F)NCCOc1ccccc1Cl` gave MARV entry inh 2.6%, Cruzain inh noDet -6.6%, RE007 growth inh -6.2%, StopGo reporter 4.4%, SARS PLpro yeast 3.5%, NS1 inh -2.4%, LASV entry inh inconclusive and Cruzain Triton -1.5%.
Screening COc1ccc(/C=C/C(=O)NC2CCN(Cc3ccccc3)CC2)cc1OC returned MARV entry inh inconclusive, RE007 growth inh 2.1%, StopGo reporter -3.2%, SARS PLpro yeast -0.4%, NS1 inh -15.1% and LASV entry inh 4.4%[46.1 µM].
Screening O=C(CCC(=O)c1ccc(Oc2ccccc2)cc1)Nc1cccc(Cl)c1Cl returned MARV entry inh 7.3%[46.1 µM], Cruzain inh noDet -0.7%, RE007 growth inh 7.2%, StopGo reporter -11.5%, SARS PLpro yeast 21.9%, NS1 inh 6.1%, LASV entry inh -6.9%[46.1 µM] and Cruzain Triton -3.2%.
Screening CCOc1ccccc1-c1nnc(SCC(=O)NC2CC3CCC2C3)n1CC (stereo not given) returned MARV entry inh -3.9%, Cruzain inh noDet 7.7%, RE007 growth inh -2.6%, StopGo reporter -1.4%, SARS PLpro yeast -1.9%, NS1 inh -8.5%, LASV entry inh -0.4% and Cruzain Triton -2.1%.
For Cc1cc(C)n2nc(C(F)(F)F)c(-c3ccccc3)c2n1 the results were MARV entry inh inconclusive, RE007 growth inh 5.1%, StopGo reporter -18.2%, SARS PLpro yeast 0.0%, NS1 inh 3.0% and LASV entry inh 11.7%[46.1 µM].
Screening O=C(Nc1ccc(NC(=O)c2ccc(Cl)c(S(=O)(=O)N3CCOCC3)c2)cc1)c1ccccc1 returned MARV entry inh inconclusive, RE007 growth inh -22.7%, StopGo reporter -11.0%, SARS PLpro yeast 12.3%, NS1 inh -7.4% and LASV entry inh inconclusive.
CC(=O)N1N=C(c2ccncc2)OC12CCCCC2 was read as MARV entry inh -8.7%, Cruzain inh noDet -7.9%, RE007 growth inh -9.8%, StopGo reporter -3.4%, SARS PLpro yeast 3.1%, NS1 inh -6.9%, LASV entry inh 5.9% and Cruzain Triton -1.7%.
O=C(COC(=O)CNC(=O)c1ccc(Cl)c([N+](=O)[O-])c1)NC(=O)c1ccccc1 was read as RE007 growth inh -12.7%, StopGo reporter -24.2%, SARS PLpro yeast 5.4% and NS1 inh 7.8%.
`CCc1cccc(NC(=O)CSc2ncc3c(n2)-c2ccccc2N(Cc2ccccc2C)S3(=O)=O)c1` gave Cruzain inh noDet inconclusive, StopGo reporter -13.8%, LASV entry inh -2.1%[46.1 µM] and Cruzain Triton 2.0%.
Screening Cc1cc2oc(=O)cc(C)c2c(=O)o1 returned MARV entry inh -1.2%, Cruzain inh noDet -16.4%, RE007 growth inh 8.1%, StopGo reporter -17.2%, SARS PLpro yeast -0.6%, NS1 inh inconclusive, LASV entry inh 15.4% and Cruzain Triton -8.2%.
For Cc1cc(C)cc(NC(=O)c2nccnc2C(=O)O)c1 the results were Cruzain inh noDet 0.9%, RE007 growth inh 8.2%, StopGo reporter 3.3%, SARS PLpro yeast 15.9%, NS1 inh 1.5% and Cruzain Triton -5.1%.
For COc1ccc(N2CCN(C(=O)C3CCCN3S(=O)(=O)c3cccc4nsnc34)CC2)cc1 (stereo not given) the results were RE007 growth inh -1.4%, StopGo reporter -7.7%, SARS PLpro yeast -3.7% and NS1 inh 9.3%.
